Bioassay records from PubChem.
ID4 SMM: ID4 (human) binding; P47928; small molecule microarray, Flag-ID4 binding, fluorescence F/B; calls only; hit rate 1.2% among 31,000; AID 624137;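 active = spot signal over background at p below 0.07 in all four prints; compounds were printed on slides so no solution concentration is given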;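 note: a binder raises fluorescence above local background on the spot; about 2 pmol printed per array spot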
Target sequence (P47928 whole entry, looked up): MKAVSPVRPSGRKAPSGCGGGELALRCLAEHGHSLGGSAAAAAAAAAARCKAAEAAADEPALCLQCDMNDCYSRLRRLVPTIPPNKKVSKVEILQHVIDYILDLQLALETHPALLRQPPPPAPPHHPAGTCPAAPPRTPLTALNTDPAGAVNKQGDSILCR
c-Myc SMM: c-Myc (human) binding; AID 624141; hit rate 1.5% among 17,000; small molecule microarray, His-c-Myc binding, anti-His fluorescence; calls only; P01106;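 active = spot fluorescence over background with P-value below 7% in all four replicate spots, showing protein binding; compounds were printed on slides so no solution concentration is given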;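 note: score is binary with 100 for all four spots passing and 0 otherwise; about 2 pmol printed per array spot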
Target sequence (P01106 whole entry, looked up): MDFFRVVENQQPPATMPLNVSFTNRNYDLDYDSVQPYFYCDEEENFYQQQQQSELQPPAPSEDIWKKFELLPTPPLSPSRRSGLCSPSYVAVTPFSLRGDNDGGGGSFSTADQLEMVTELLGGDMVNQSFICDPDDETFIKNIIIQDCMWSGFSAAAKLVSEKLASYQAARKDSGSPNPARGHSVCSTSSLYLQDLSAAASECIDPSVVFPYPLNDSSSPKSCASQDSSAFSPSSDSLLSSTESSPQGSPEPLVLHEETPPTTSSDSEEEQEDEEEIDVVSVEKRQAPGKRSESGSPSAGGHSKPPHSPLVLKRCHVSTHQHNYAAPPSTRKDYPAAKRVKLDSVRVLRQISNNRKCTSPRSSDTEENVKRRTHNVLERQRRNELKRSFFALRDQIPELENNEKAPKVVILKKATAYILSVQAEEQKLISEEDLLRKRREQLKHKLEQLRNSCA
STAT3 binder: binders of human STAT3 | AID 624138 | Small molecule microarray, His-STAT3 binding, anti-His fluorescence | P40763 | hit rate 0.2% among 17,000 | calls only;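 active = compounds whose four printed spots each show fluorescence over background unusually high for their array block, chance value under 7%; compounds were printed on slides so no solution concentration is given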;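 note: about 2 pmol printed per array spot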
mut p53 SMM: binds human mutant p53 on microarray | small molecule microarray binding, anti-GST fluorescence | calls only | hit rate 0.4% among 17,000;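 active = compounds whose four printed spots each glow above background more than chance allows, each with a p-value under 7%; compounds were printed on slides so no solution concentration is given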;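 note: about 2 pmol printed per array spot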
Calls only; i = inactive; x = no result given; + = active, no number. The list is partial. The share of hits here may be higher or lower than overall.

SMILES | ID4 SMM | c-Myc SMM | STAT3 binder | mut p53 SMM
COc1ccc(-c2c(-c3ccc(OCc4cnn(-c5ccccc5)c4)c(C)c3O)n[nH]c2C)cc1 | i | i | i | i
CN1C(=O)[C@@H]2[C@@H](CC(COc3ccccc3)=C3[C@@H](c4ccccc4)OB(O)C[C@@H]32)C1=O | i | i | i | i
COc1ccc(NC(=O)Nc2ccc3c(c2)C(=O)N([C@@H](C)CO)C[C@@H](C)[C@H](CN(C)Cc2ccc(C(F)(F)F)cc2)O3)cc1 | x | i | i | i
O=C(CSc1nccc(=O)[nH]1)N1CCCc2ccccc21 | i | i | i | i
NS(=O)(=O)c1cccc2c1c([N+](=O)[O-])cc1[nH]c(=O)c(=O)[nH]c12 | i | i | i | i
O=C(CSc1nc2ccccc2o1)Nc1ccc(I)cc1 | i | i | i | i
O=c1[nH]c(SCc2n[nH]c(=S)n2-c2ccccc2)nc2ccccc12 | i | i | i | i
C[C@H](CO)N1C[C@H](C)[C@H](CN(C)Cc2ccc(C(F)(F)F)cc2)Oc2ccc(NC(=O)Nc3ccc4c(c3)OCO4)cc2C1=O | i | i | i | i
C=CCN1C(=O)[C@]2(O[C@H](CCO)[C@@H]([Si](C)(C)c3ccc(OC)cc3)[C@@H]2C)c2cc(N3CCC3=O)ccc21 | i | i | i | i
COc1ccc(S(=O)(=O)Nc2cccc3c2O[C@@H](CN(C)S(=O)(=O)c2cccs2)[C@H](C)CN([C@H](C)CO)C3=O)cc1 | i | i | i | i
CNC[C@@H]1OCCCC[C@H](C)Oc2ccc(NC(=O)Nc3ccccc3)cc2C(=O)N([C@H](C)CO)C[C@@H]1C | i | i | i | i
C[C@H]1CN([C@@H](C)CO)C(=O)c2cccc(NS(C)(=O)=O)c2O[C@@H]1CN(C)S(=O)(=O)c1ccc(Cl)cc1 | i | i | i | i
COc1cc(CN(C)Cc2cccc3ccccc23)c([N+](=O)[O-])cc1OC | i | i | i | i
COc1ccc(OC)c(NC(=O)Cc2coc3ccc(C)cc23)c1 | i | i | i | i
Cc1noc(C)c1NC(=O)N(C)C[C@H]1Oc2ccc(NS(=O)(=O)c3cn(C)cn3)cc2CC(=O)N([C@H](C)CO)C[C@H]1C | i | i | i | i
Cn1cc(CNC(=O)c2cc(-c3ccc(Br)cc3)nc3ccccc23)cn1 | i | i | i | i
Cc1noc(C)c1NC(=O)Nc1ccc2c(c1)C(=O)N([C@@H](C)CO)C[C@H](C)[C@@H](CN(C)C(=O)C1CCCCC1)OCCCC[C@H](C)O2 | i | + | i | i
C[C@H](CO)N1C[C@H](C)[C@@H](CN(C)Cc2ccc(C(F)(F)F)cc2)Oc2ccc(N(C)C)cc2CC1=O | i | i | i | i
Cc1noc(C)c1NC(=O)N(C)C[C@H]1OCc2cn(nn2)CCCC(=O)N([C@@H](C)CO)C[C@@H]1C | i | i | i | i
COc1ccc(OC)c(-n2c(-c3cc(-c4ccco4)[nH]n3)n[nH]c2=S)c1 | i | i | i | i

Record cards, as listed above. Order of values: ID4 SMM	c-Myc SMM	STAT3 binder	mut p53 SMM
C=CCN1C(=O)[C@]2(O[C@H](CCO)[C@@H]([Si](C)(C)c3ccc(OC)cc3)[C@@H]2C)c2cc(N3CCC3=O)ccc21 across the screens: i	i	i	i
O=C(CSc1nccc(=O)[nH]1)N1CCCc2ccccc21 across the screens: i	i	i	i
Cc1noc(C)c1NC(=O)N(C)C[C@H]1Oc2ccc(NS(=O)(=O)c3cn(C)cn3)cc2CC(=O)N([C@H](C)CO)C[C@H]1C across the screens: i	i	i	i

Rewritten with two lines to a compound: part of the list above
Each structure is followed by: ID4 SMM	c-Myc SMM	STAT3 binder	mut p53 SMM
> CNC[C@@H]1OCCCC[C@H](C)Oc2ccc(NC(=O)Nc3ccccc3)cc2C(=O)N([C@H](C)CO)C[C@@H]1C
    i	i	i	i
> Cc1noc(C)c1NC(=O)Nc1ccc2c(c1)C(=O)N([C@@H](C)CO)C[C@H](C)[C@@H](CN(C)C(=O)C1CCCCC1)OCCCC[C@H](C)O2
    i	+	i	i
> COc1ccc(OC)c(-n2c(-c3cc(-c4ccco4)[nH]n3)n[nH]c2=S)c1
    i	i	i	i
> O=C(CSc1nccc(=O)[nH]1)N1CCCc2ccccc21
    i	i	i	i
> Cc1noc(C)c1NC(=O)N(C)C[C@H]1Oc2ccc(NS(=O)(=O)c3cn(C)cn3)cc2CC(=O)N([C@H](C)CO)C[C@H]1C
    i	i	i	i

(continued)
SMILES | ID4 SMM | c-Myc SMM | STAT3 binder | mut p53 SMM
Cc1noc(C)c1NC(=O)Nc1ccc2c(c1)C(=O)N([C@@H](C)CO)C[C@@H](C)[C@H](CN(C)C(=O)Nc1c(C)noc1C)O2 | i | i | i | i
COc1ccc(S(=O)(=O)N(C)C[C@H]2Oc3c(NC(=O)Nc4cccc5ccccc45)cccc3C(=O)N([C@H](C)CO)C[C@H]2C)cc1 | i | i | i | i
C[C@@H]1CN([C@H](C)CO)C(=O)c2cc(NC(=O)NC3CCCCC3)ccc2O[C@@H]1CN(C)Cc1ccc2c(c1)OCO2 | i | i | i | i
CC(C)(CO)NCC(O)COc1ccccc1Cl (stereo unspecified) | i | i | i | i
COc1ccc(NC(=O)Nc2cccc3c2O[C@H](CN(C)S(=O)(=O)c2cccs2)[C@@H](C)CN([C@@H](C)CO)C3=O)cc1 | i | i | i | i
C[C@H](CO)N1C[C@H](C)[C@H](CN(C)Cc2ccc(O)cc2)OCc2cnnn2CCCC1=O | i | i | i | i
C[C@@H]1CCCCO[C@@H](CN(C)C(=O)Cc2ccccc2)[C@@H](C)CN([C@@H](C)CO)C(=O)c2cc(NS(C)(=O)=O)ccc2O1 | i | i | i | i
COc1ccc(NC(=O)C(C)N(c2cc(C)cc(C)c2)S(C)(=O)=O)c(OC)c1 (stereo unspecified) | i | i | i | i
C[C@H](CO)N1C[C@H](C)[C@H](CN(C)CC2CC2)Oc2ccc(NS(=O)(=O)c3cccs3)cc2CC1=O | i | i | i | i
Cc1cc(SCC(=O)Nc2ccccc2)nc2c(C)cccc12 | i | i | i | i
CNC[C@H]1Oc2c(NC(=O)Nc3ccccc3)cccc2C(=O)N([C@@H](C)CO)C[C@H]1C | i | i | i | i
Cc1cc([N+](=O)[O-])ccc1NC(=O)CN1C(=O)COc2ccc(Cl)cc21 | i | i | i | i
Cc1ccc(-n2c(SCC(=O)Nc3cc(C(F)(F)F)ccc3Cl)nnc2-c2ccco2)cc1 | i | i | i | i
COC(=O)c1cccc(NC(=O)C(C)Oc2ccc3c(C)cc(=O)oc3c2)c1 (stereo unspecified) | i | i | i | i
COc1ccc(S(=O)(=O)N(C)C[C@H]2Oc3c(NC(=O)c4nc5ccccc5s4)cccc3C(=O)N([C@H](C)CO)C[C@@H]2C)cc1 | i | i | i | i
C[C@H](CO)N1C[C@H](C)[C@@H](CN(C)CC2CCCCC2)Oc2ccc(NC(=O)Nc3ccc4c(c3)OCO4)cc2C1=O | i | + | i | +
Cc1noc(C)c1NC(=O)Nc1ccc2c(c1)CC(=O)N([C@@H](C)CO)C[C@@H](C)[C@@H](CN(C)Cc1ccc(C(F)(F)F)cc1)O2 | i | i | i | i
COc1cccc(CN2CCN(Cc3cccc([N+](=O)[O-])c3)CC2)c1OC | i | i | i | i
C[C@H](CO)N1C[C@H](C)[C@H](CN(C)C(=O)CCCN(C)C)OCCCC[C@H](C)Oc2ccc(NS(=O)(=O)c3cccs3)cc2C1=O | i | i | i | i
COc1ccc(NC(=O)CSC2=NC(c3ccccc3)CC(=O)N2)cc1Br (stereo unspecified) | i | i | i | i
COc1ccc(S(=O)(=O)N(C)C[C@@H]2Oc3c(NC(=O)C4CC4)cccc3C(=O)N([C@H](C)CO)C[C@H]2C)cc1 | i | i | i | i
N#CCCN(Cc1ccccc1)C(=O)c1ccccc1[N+](=O)[O-] | i | i | i | i
Cn1c(SCC(=O)N2CCN(Cc3ccccc3)CC2)nnc1-c1ccncc1 | + | i | i | i
COc1ccc(CN(C)C[C@H]2Oc3ccc(NC(=O)Cc4ccccc4)cc3CC(=O)N([C@H](C)CO)C[C@H]2C)cc1 | i | i | i | i
CC(C)NC(=O)Nc1ccc2c(c1)C(=O)N([C@@H](C)CO)C[C@H](C)[C@H](CN(C)C(=O)Nc1ccc3c(c1)OCO3)OCCCC[C@H](C)O2 | i | i | i | i
O=C(NCc1cccnc1)c1ccc2c(c1)C(=O)N(Cc1cccnc1)C2=O | i | i | i | i
COc1ccc(S(=O)(=O)N(C)C[C@H]2Oc3ccc(NC(=O)Cc4ccccc4)cc3CC(=O)N([C@@H](C)CO)C[C@@H]2C)cc1 | i | i | i | i
C[C@H]1CCCCO[C@@H](CN(C)C(=O)C2CCCCC2)[C@@H](C)CN([C@@H](C)CO)C(=O)c2cc(NC(=O)c3ccncc3)ccc2O1 | i | i | i | i
C[C@@H]1CN([C@H](C)CO)C(=O)CCCn2nncc2CO[C@H]1CN(C)C(=O)Cc1ccccc1 | x | i | i | i
C[C@@H]1CCCCO[C@@H](CN(C)C(=O)c2ccccc2)[C@@H](C)CN([C@H](C)CO)C(=O)c2cc(NC(=O)Nc3ccc4c(c3)OCO4)ccc2O1 | i | i | i | i
O=C(Nc1ccccc1)c1cc(S(=O)(=O)Nc2cccnc2)cs1 | i | i | i | i
C[C@H]1CN([C@@H](C)CO)C(=O)c2cccc(NS(C)(=O)=O)c2O[C@@H]1CN(C)S(=O)(=O)c1ccccc1 | x | i | i | i
CC1=C(CC/C(C)=C/C(=O)O)[C@@]2(C)CCCC(C)(C)C2CC1 (stereo partly specified) | i | i | i | i
COc1ccc(S(=O)(=O)Nc2ccc3c(c2)C(=O)N([C@@H](C)CO)C[C@@H](C)[C@@H](CN(C)S(=O)(=O)c2c(C)noc2C)O3)cc1 | i | i | i | i
CCO[C@@H]1OC(C(=O)N2CCOCC2)=C[C@H](c2ccc(C(F)(F)F)cc2)[C@H]1CCCO | i | i | i | i
O=[N+]([O-])c1ccc2nc(CSc3nc4ccccc4[nH]3)[nH]c2c1 | i | i | i | i
COCCOC(=O)N1C(=O)[C@@]2(c3ccccc31)[C@H](C(=O)N1CCN(c3ncccn3)CC1)[C@H]1C(=O)O[C@H](c3ccccc3)[C@H](c3ccccc3)N1[C@@H]2c1ccccc1OCCO | i | i | i | i
C[C@@H]1CN([C@H](C)CO)C(=O)c2cc(NC(=O)Nc3ccc4c(c3)OCO4)ccc2O[C@@H]1CN(C)Cc1ccc(C(=O)O)cc1 | i | i | i | i
CC(C)NC(=O)Nc1ccc2c(c1)C(=O)N([C@@H](C)CO)C[C@H](C)[C@H](CN(C)S(=O)(=O)c1cn(C)cn1)OCCCC[C@@H](C)O2 | i | i | i | i
COc1c(Br)cc2c(cc(C)n2-c2ccccc2)c1OCC(O)CNC(C)C (stereo unspecified) | i | i | i | i
CC1(CO)CC(=O)CC2(C)C3=C(CCC12)C(=O)OC3 (stereo unspecified) | i | i | i | i
CNC[C@H]1Oc2ccc(N(C)C)cc2CC(=O)N([C@@H](C)CO)C[C@@H]1C | i | i | i | i
C[C@H](CO)N1C[C@H](C)[C@H](CN(C)C(=O)NC2CCCCC2)Oc2c(NS(=O)(=O)c3ccccc3)cccc2C1=O | i | i | i | i
Cc1noc(C)c1NC(=O)N(C)C[C@@H]1Oc2c(NC(=O)C3CCOCC3)cccc2C(=O)N([C@@H](C)CO)C[C@H]1C | i | i | i | i
COc1cc(O)c(CC=C(C)C)cc1C(=O)/C=C/c1ccc(O)c(CC=C(C)C)c1 | x | i | i | i
CC(C)(C)NS(=O)(=O)c1ccc(OCC(=O)Nc2ccc(F)c(Cl)c2)cc1 | i | i | i | i
C=C1CCC(C)C(C)(CCC2=CCOC2=O)C/C=C\C=C/1C(=O)O (stereo unspecified) | x | i | i | i
COCC(C)NCc1ccc(OC)c(OC)c1OC (stereo unspecified) | i | + | i | i
COC(=O)CCC(=O)Nc1ccc(C(N)=O)cc1 | i | i | i | i
C[C@@H]1CN([C@@H](C)CO)C(=O)Cc2cc(NC(=O)Nc3cccc4ccccc34)ccc2O[C@@H]1CN(C)C(=O)NC1CCCCC1 | i | i | i | i
C[C@@H]1CN([C@@H](C)CO)C(=O)c2cccc(NC(=O)C3CCCCC3)c2O[C@@H]1CN(C)Cc1ccc(-c2ccccc2)cc1 | x | i | i | i
C[C@@H]1CN([C@@H](C)CO)C(=O)Cc2cc(NC(=O)Nc3ccc(F)cc3)ccc2O[C@@H]1CN(C)Cc1ccc2c(c1)OCO2 | i | i | i | i
CC(=O)OC[C@H]1O[C@@H](Oc2c(-c3ccc(O)cc3)oc3cc(O)cc(O)c3c2=O)[C@H](O)[C@@H](O)[C@@H]1O | i | i | i | i
C[C@@H]1CN([C@@H](C)CO)C(=O)c2cc(NC(=O)c3ccncc3)ccc2O[C@@H](C)CCCCO[C@H]1CN(C)C(=O)Nc1cccc2ccccc12 | i | + | i | i
CCO[C@@H]1OC(C(=O)O)=C[C@H](C2CC2)[C@H]1CCCO | i | i | i | i
CC(C)(C)c1cn2c3ccccc3nc2n1CCN1CCOCC1 | i | i | i | i
Cc1cc(C)cc(NC(=O)Cn2cc(C(=O)c3cccs3)c3ccccc32)c1 | i | i | i | i
COc1ccccc1NC(=O)CN1C(=O)NC(C)(C)C1=O | i | i | i | i
C[C@@H]1CN([C@@H](C)CO)C(=O)Cc2cc(NS(=O)(=O)c3ccccc3)ccc2O[C@@H]1CN(C)C(=O)Nc1ccc(C(F)(F)F)cc1 | i | i | i | i
C[C@H]1CN([C@@H](C)CO)C(=O)c2cc(NC(=O)Cn3cnnn3)ccc2O[C@H]1CN(C)Cc1ccc(Cl)c(Cl)c1 | i | i | i | i
